motility – Vibrio cholerae motility inhibitors, OD read-out (AID 588778); Vibrio cholerae motility, OD read-out; higher % means a stronger effect; test concentration not given here; primary cut-off and reference of the scale not given here; strong numbers were not always called active; inhibition, %; hits with a dose series show IC50 in µg/mL; 10,000 tested, under 10 active; in the data active = confirmed in a dose series; inconclusive = primary hit not retested
motility viability – further read-out of motility, marked with its call; inhibition, %; measured here: bacterial viability at 10 ug/mL;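 higher means fewer living bacteria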
* = called active by the depositor; i = inactive; ? = inconclusive; nt = no result given. Not all compounds are listed; rates above refer to the full screens.

structure	motility	motility viability
N#Cc1cc2c(nc1SCC(=O)N1CCCCC1)CCCCC2	-0.5%	-2.4
Nc1nnc(Cn2c(-c3nonc3N)nc3ccccc32)s1	-15.4%	-10.6
CCOC(=O)c1c(C)sc(Sc2ccc(Br)cc2[N+](=O)[O-])c1OC	-1.3%	0.0
O=C(CSC1=NCCS1)Nc1ccc(Cl)cn1	13.5%	-3.0
CC(C)COc1ccccc1OCC(C)C	-19.5%	-5.4
O=C(Nc1nnc(C(c2ccccc2)c2ccccc2)s1)c1cncc(Br)c1	11.3%	1.1
Cc1nnc(SCC(=O)NC(C)(C)C)n1NCc1c(F)cccc1Cl	6.7%	0.8
COC(=O)c1ccc(NC(=O)/C(=C/c2ccccc2)c2ccccc2)cc1	-9.1%	-7.8
CN1C/C(=C\c2cccnc2)C(=O)/C(=C/c2cccnc2)C1	-0.8%	-1.6
O=C(O)CCSc1nnc2c(n1)[nH]c1ccccc12	-2.9%	-0.3
COc1cc(C(=O)NCC(=O)OCc2ccccc2Cl)cc(OC)c1OC	-2.9%	-4.3
Cc1cc(NC(=O)COc2ccc(C(=S)N3CCCC3)cc2)ccc1Br	-5.7%	-10.6
COc1cccc2c1OC1=C(C(=O)CCC1)C2C1=C(O)CCCC1=O (stereo unspecified)	17.2%	12.2
CCC(C)NS(=O)(=O)c1ccc(NC(=O)C(Sc2ccccc2)c2ccccc2)cc1 (stereo unspecified)	2.3%	-3.7
Cc1ccc(C(=O)CSc2cc(C)nc3nc(C)nn23)cc1	9.5%	7.5
Cn1c2ccc(Br)cc2c2nnc(SCC(=O)Nc3nc4ccccc4s3)nc21	0.1%	2.8
CC(=O)CCc1c(C)[nH]c2ccc(NC(C)=O)cc2c1=O	12.5%	-1.4
O=C(CCC(=O)OCc1cccc(C(=O)Oc2ccccc2)c1)Nc1cccc2ccccc12	-5.6%	-1.4
CCOC(=O)c1ccc(NC(=O)COc2ccc3oc(=O)cc(C)c3c2)cc1	-17.2%	-0.8
O=C(/C=C/c1ccc(Br)cc1)c1ccc2ccccc2c1O	3.2%	-1.1
CC(O)c1nc2ccccc2n1CCOc1ccc(F)cc1 (stereo unspecified)	-0.4%	-2.4
CC(C)(C)C(=O)Nc1ccc2c3c(cccc13)CC2	11.4%	-1.8
CCOC(=O)c1ccc(NC(=O)Nc2c(C)nn(Cc3ccc(Cl)c(Cl)c3)c2C)cc1	6.8%	-1.3
Cc1cc2c(N3CCN(Cc4nc5ccccc5[nH]4)CC3)ncnc2s1	18.1%	2.8
O=C(c1ccc(Br)cc1)n1c(Cc2ccccc2)nc2ccccc21	?	nt
COc1ccc(OC)c(NC(=O)NNC(=O)c2ccn(C)n2)c1	20.3%	14.6
CC(Oc1ccc(Br)cc1)C(=O)Nc1ccccc1[N+](=O)[O-] (stereo unspecified)	-1.9%	-2.4
O=C(Nc1cc(Cl)c(Cl)cc1Cl)C(F)(F)F	12.0%	-3.5
c1ccc(CNc2nc(NCc3ccco3)nc(N3CCOCC3)n2)cc1	-2.8%	-4.7
S=C(NCC1CCCO1)N1CCN(c2ncccn2)CC1 (stereo unspecified)	1.2%	-0.5
COC(=O)C1Cc2c(ccc3ccccc23)O1 (stereo unspecified)	-3.5%	-4.4
O=C1CCCC(=O)C1C1c2ccccc2Oc2ccc(F)cc21 (stereo unspecified)	17.5%	1.0
CSc1nsc(SCC(=O)NCc2ccco2)n1	2.8%	-2.4
CC(C)COc1cc(=O)[nH]c(SCC(C)C)n1	5.3%	3.9
O=C(Cc1ccccc1)N1CCN(CC2CC=CCC2)CC1 (stereo unspecified)	16.2%	1.8
Cc1cccnc1NC(=O)C12CC3CC(CC(C3)C1)C2	2.2%	-4.0
COC(=O)Cc1c(C)nc(SCc2ccccc2)[nH]c1=O	-5.3%	-7.4
O=C1N(c2cccc(Cl)c2)C2CS(=O)(=O)CC2N1c1cccc(C(F)(F)F)c1 (stereo unspecified)	-10.8%	-1.9
COc1cc(NC(=O)c2ncn[nH]2)cc(OC)c1OC	-0.1%	-4.4
COc1ccc(N2CCN(c3nc(NCCc4ccc(OC)c(OC)c4)nc(N4CCOCC4)n3)CC2)cc1	-12.9%	-8.3
O=C(O)C1C2C=CC(O2)C1C(=O)NCc1ccccc1Br (stereo unspecified)	-4.5%	6.3
COc1ccc(S(=O)(=O)N(CC(=O)Nc2ccc(S(=O)(=O)Nc3nccs3)cc2)c2cccc(Cl)c2)cc1	1.5%	-2.3
CS(=O)(=O)N(CC(N)=O)Cc1ccc(Cl)cc1	27.7%	6.1
O=C(c1ccccc1)c1cccc(S(=O)(=O)c2ccccc2)c1	8.3%	6.8
CCOC(=O)/C=C/C(=O)Nc1nc(-c2ccccc2)cs1	1.6%	-4.7
CC(=O)Oc1ccc2c(c1Br)CCCC2	-10.4%	-6.8
COC(=O)c1ccc(NC(=S)Nc2cc(C)[nH]n2)cc1	2.5%	-6.6
Cc1ccc(N2C(=O)c3ccc(C(=O)OCC(=O)c4ccc(Cl)c([N+](=O)[O-])c4)cc3C2=O)cc1	-4.9%	-1.9
Cc1cccc(NC(=O)c2sc(-c3ccccc3)nc2C)c1	-5.1%	-3.1
CC(C)CCOc1ccccc1C(N)=O	13.1%	2.4

New compounds follow:
structure	motility	motility viability
O=C(Nc1nc2ccccc2[nH]1)c1ccc([N+](=O)[O-])cc1	9.2%	-2.1
COc1ccc(C)cc1NS(=O)(=O)c1ccc(NC(=O)C(C)Sc2ccc(Cl)cc2)cc1 (stereo unspecified)	-24.0%	-9.3
CSC1=NC(C)=C(C(=O)Nc2ccccc2)C2(CCCCC2)C1C(N)=O (stereo unspecified)	1.9%	-1.8
COc1ccc(I)cc1CNCCO	-4.1%	2.5
O=CNC1CCCc2c1[nH]c1ccc(F)cc21 (stereo unspecified)	42.3%	15.4
COc1cc(C(=O)Nc2ccccc2Br)ccc1OCc1ccccc1	-8.7%	-7.1
O=c1c2ccccc2nc(SCc2cc(=O)n3ccccc3n2)n1CC1COc2ccccc2O1 (stereo unspecified)	-4.0%	-2.1
Cc1ccc(N2C(=O)CCC2(C(N)=O)c2ccccc2)cc1 (stereo unspecified)	-4.1%	1.7
O=C(Nc1nnc(Cc2ccccc2)s1)C1CC(=O)N(C2CCCCC2)C1 (stereo unspecified)	15.0%	1.9
O=C(NCc1ccccn1)c1ccc(Cn2cc(Br)cn2)o1	12.7%	-4.0
CC(=O)Nc1ccc(OS(=O)(=O)c2cc(C)c(Br)cc2C)cc1	45.4%	7.9
COc1cc(Cl)c(C)cc1NC(=O)C(C)Oc1ccc(Br)cc1 (stereo unspecified)	7.9%	20.0
Cc1ccsc1C=NN1CCN(c2ccc(Cl)cc2)CC1	-5.7%	-6.9
COc1ccc(-c2ccc(C#N)c(SCc3ccccc3[N+](=O)[O-])n2)cc1	-17.4%	-8.2
CCc1nnc(NC(=O)c2ccc(-c3cccc(C(F)(F)F)c3)o2)s1	-26.0%	-11.1
COc1ccc(NC(=O)COc2nc3c(C)cc(C)nc3o2)cc1OC	9.0%	11.7
CC(C)C(NC(=O)c1ccc(Cl)cc1)C(=O)NC1=NCCS1 (stereo unspecified)	7.3%	-3.2
O=C(Nc1nc(-c2ccccc2)ns1)c1cccs1	21.3%	9.3
O=C(NCCOc1ccccc1)C1CCCCC1	-2.3%	-12.7
CCN(CC)/C(C)=N/C(=O)Nc1ccccc1	0.0%	-3.2
Cc1cccnc1NC1=NCC(C)S1 (stereo unspecified)	34.0%	10.7
O=C(Cc1cccs1)Nc1ccc(-c2nc3ccccc3c(=O)[nH]2)cc1	7.6%	32.9
CCOC(=O)Nc1sccc1C(N)=O	-13.0%	2.7
O=c1cc(/C=C/c2ccccc2)oc2ccccc12	17.8%	5.0
Cc1ccc(S(=O)(=O)c2cc(C)ccc2C)cc1	14.2%	0.7

Full records from above. Order of values: motility | motility viability
Record of `Cc1ccc(N2C(=O)CCC2(C(N)=O)c2ccccc2)cc1` (stereo unspecified) → -4.1% | 1.7
Record of `O=C(Nc1nc2ccccc2[nH]1)c1ccc([N+](=O)[O-])cc1` → 9.2% | -2.1
Record of `CCc1nnc(NC(=O)c2ccc(-c3cccc(C(F)(F)F)c3)o2)s1` → -26.0% | -11.1

More structures:
structure	motility	motility viability
CN(C(=O)c1ccc(Cl)cc1)c1ccc(C(O)(C(F)(F)F)C(F)(F)F)cc1	0.4%	3.7
Cc1c(Br)ccc(NC(=O)C(Cc2ccccc2)N2C(=O)C3C4CCC(C4)C3C2=O)c1C (stereo unspecified)	-4.5%	-3.3
COc1ccc(OC)c(-c2nc(Nc3ccccc3Cl)sc2CC(=O)O)c1	26.3%	-1.7
COc1ccccc1C/C(N)=N/OC(=O)c1ccccc1F	2.9%	-2.1
COc1ccc(/C=C(\C#N)c2nc3ccccc3n2Cc2c(C)ccc3ccccc23)cc1	-10.5%	-6.8
O=C1CC(Sc2ccccc2C(=O)O)C(=O)N1 (stereo unspecified)	i	39.3
CC1CN(c2ccc(C(F)(F)F)cc2[N+](=O)[O-])CCN1S(=O)(=O)c1ccc2ccccc2c1 (stereo unspecified)	-8.3%	-4.1
CN(c1ccccc1C(=O)Nc1ccc(F)c(Cl)c1)S(=O)(=O)c1ccccc1	4.8%	-5.4
N#Cc1c(=N)nc2oc3ccccc3c3cc(-c4ccccc4)[nH]c1c23	6.7%	1.3
COCCCNC(=S)Nc1ccc2c(c1)CCC2	-0.7%	-6.0
CC(=O)Nc1sc(/C(C#N)=C/c2ccc(N(C)C)cc2)nc1-c1ccc(C)cc1	2.8%	-2.3
CSc1nc(N)nc(SC(C(=O)O)c2ccccc2)c1C#N (stereo unspecified)	5.7%	1.1
O=C(NNC(=S)NCc1ccc(F)cc1)c1c[nH]c2ccccc12	-7.7%	1.9
O=C(Nc1c(F)c(F)c(F)c(F)c1F)c1ccc(Br)o1	5.6%	16.9
CC(=O)Nc1c(O)nc(SCC(=O)Nc2nnc(CC(C)C)s2)[nH]c1=O	19.7%	-0.2
CC(C)=Cc1c(O)nc2ccccn2c1=O	-9.8%	-7.6
CC(=O)c1nn(-c2ccc(F)cc2)nc1NC1CCc2ccccc21 (stereo unspecified)	9.6%	-0.2
O=C1OC(c2ccccc2)=N/C1=C/c1ccc(-c2ccc(F)cc2)o1	1.9%	4.5
NC(=NC1CCCCC1)c1ccc(Cl)cc1	15.2%	-3.6
Nc1nc(N)nc(COc2ccccc2)n1	-7.8%	-3.9
COc1cc(OC)nc(NC(=O)CSc2nc3ccccc3o2)n1	10.1%	19.8
CCOC(=O)c1cc(NC(=O)CSc2nnc(C)s2)ccc1Cl	4.6%	-0.7
COc1cccc(Nc2nc3ccccc3nc2NS(=O)(=O)c2cccs2)c1	14.3%	5.1
CCc1ccc(CCC(=O)Nc2nnc(SCc3ccccc3)s2)o1	3.7%	3.8
O=C(c1ccncc1)N1CCN(Cc2ccccc2Br)CC1	-5.3%	-5.3

Part of the list above, as labelled records.
> COc1ccccc1C/C(N)=N/OC(=O)c1ccccc1F
  motility: 2.9%; motility viability: -2.1

> CC(=O)Nc1sc(/C(C#N)=C/c2ccc(N(C)C)cc2)nc1-c1ccc(C)cc1
  motility: 2.8%; motility viability: -2.3

> CSc1nc(N)nc(SC(C(=O)O)c2ccccc2)c1C#N (stereo unspecified)
  motility: 5.7%; motility viability: 1.1

> NC(=NC1CCCCC1)c1ccc(Cl)cc1
  motility: 15.2%; motility viability: -3.6

Remaining list, next part.
structure	motility	motility viability
COc1ccc2c(=O)c(-c3ccccn3)coc2c1	1.3%	-8.6
NC(=O)CS(=O)(=O)c1ccc2ccccc2c1	9.5%	2.9
Cc1sc(NC(=O)c2ccc(Cl)s2)c(C#N)c1C	7.8%	-3.5
O=C(CN1CCN(c2ccc([N+](=O)[O-])cc2)CC1)Nc1ccccn1	18.8%	-1.7
COc1cc(Cl)c(S(=O)(=O)n2cnc(C)c2)cc1Cl	2.4%	1.6
COC(=O)Nc1ccc(Cc2ccncc2)cc1	0.4%	-6.1
CN(C)CCn1c(C(=O)Nc2ccccc2)cc2ccccc21	53.9%	17.8
c1cnc(SCCCCOc2ccc3c(c2)CCC3)nc1	3.5%	5.4
O=C(NCCCn1cc(Br)cn1)Nc1ccccc1C(F)(F)F	-3.0%	-3.5
O=C(Oc1ccccc1Cl)c1ccccc1I	5.3%	0.5
COc1ccccc1NC(=O)CSc1nnc(C2CCCCC2)n1C	-3.6%	-1.8
Cc1cccc(C(C)C)c1NC(=O)C1CC1	-0.2%	5.0
Cc1c2oc3c(c2cc2c1oc(=O)c1ccccc12)CCCC3	10.1%	-1.7
CCOC(=O)c1ccc(NC(=O)NCc2ccco2)cc1	22.7%	2.5
CC(C)(C)C(=O)NC(=S)Nc1ccccc1C(N)=O	-10.6%	2.2
CCOC(=O)C(=CNc1ccccc1O)C(=O)OCC	3.5%	-0.9

Already shown: 3 of the compounds above.
structure	motility	motility viability
N#Cc1cc2c(nc1SCC(=O)N1CCCCC1)CCCCC2	-0.5%	-2.4
Nc1nnc(Cn2c(-c3nonc3N)nc3ccccc32)s1	-15.4%	-10.6
CCOC(=O)c1c(C)sc(Sc2ccc(Br)cc2[N+](=O)[O-])c1OC	-1.3%	0.0

Source: PubChem
